# High-throughput results from PubChem.
# PrP 5UTR inh: suppresses PrP 5' UTR mRNA reporter expression; actives 0.35% (n = 340,000); inhibition, % (test concentration not listed); cell-based PrP 5' UTR mRNA reporter, plate reader;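 active = every replicate at 50% or more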;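 note: 0 = median of the neutral control wells; tested in H4 reporter cells; numbers are from one replicate; inactives centre near -14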
# Bead autofluor: counter-screen for toxin protease inhibitors: compound fluorescence; compound autofluorescence counterscreen, microsphere flow cytometry; hits give high values; fluorescence intensity (test concentration not listed); actives 3.1% (n = 360,000);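 active = at least 3 SD above the mean of all compounds, about 16000 in these data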;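 note: 100 nL of 1 mM stock went into each well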
# Sa ugtP lethal: kills S. aureus RN4220 lacking UgtP; AID 1259309; S. aureus RN4220 ugtP deletion, OD600 growth, 16 h; some inactives read as strong as hits; growth inhibition, % (no concentration beside the values); actives 0.54% (n = 330,000);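 active = z-score under -3 and OD600 up to 0.15 on both plates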;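 note: plate controls were untreated wells for no effect and antibiotic for full effect; wells of about 80 µL received 100 nL stock; the first replicate is given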
# RN4220 kill: S. aureus RN4220 growth inhibition; OD600, 16 h; inhibition, % (concentration not given with the values); actives 0.33% (n = 330,000);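 active = z-score of -3 or lower and OD600 up to 0.18 on both plates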;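 note: plate controls were untreated cells for no effect and reference antibiotic for full effect; stock transfer was 100 nL into about 80 µL; one replicate is shown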
# BJeLR lethal: BJeLR cell viability loss; BJeLR (HRASV12) viability, CellTiter-Glo ATP luminescence, 48 h; reference of the scale not given here; actives 0.17% (n = 300,000); inhibition, % (concentration not given with the values); AID 1554;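 active = replicate mean above 50%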;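 note: 50 nL library stock added to about 25 µL; numbers are from one replicate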
# Mtb hypoxia rep: reduces hypoxia-regulated biosensor signal in M. tuberculosis. M. tuberculosis hypoxia-regulated fluorescent reporter, fluorescence. fluorescence inhibition, % (no concentration beside the values). actives 0.1% (n = 300,000). AID 1159583;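 active = 35 to 45% if threefold the growth effect, above 45% if 1.5-fold the growth effect; inactive = the rest, general growth blockers included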;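 note: wells of about 50 µL received 100 nL stock; 0% = vehicle wells and 100% = reference inhibitor wells; whole bacteria with a GFP reporter of the hypoxia response; strong numbers were not always called active; many hits fall short of the cut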
# Mtb hypoxia rep growth: further read-out of Mtb hypoxia rep, marked with its call; growth inhibition, %; measured here: M. tuberculosis growth (absorbance);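 0% = vehicle and 100% = reference antibiotic; read after six days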
# Starred values were filed as active, the others as inactive; . = not tested or not shown.
SMILES	PrP 5UTR inh	Bead autofluor	Sa ugtP lethal	RN4220 kill	BJeLR lethal	Mtb hypoxia rep	Mtb hypoxia rep growth
O=C(CSc1nnc2ccccn12)NNC(=O)c1ccc(Br)cc1	-10	3261	6	2.0	-2	12	5
COc1ccc(-n2c(Cc3ccccc3)nc3ccccc3c2=O)cc1	-12	2681	19	1.9	1	15	11
CCOc1ccccc1NC(=O)CSc1nc(=O)n(Cc2ccncc2)c2c1CCC2	-3	5909	5	0.4	2	2	3
N/C(=N\OC(=O)N1c2ccccc2Sc2ccccc21)c1ccccc1	-17	2034	-9	4.0	-3	9	9
O=C(CSc1ncnc2c(-c3ccc(Cl)cc3)nsc12)c1ccccc1	-26	10227	33	-7.5	-5	1	3
COc1ccc(OC)c(S(=O)(=O)Nc2ccc(C(N)=O)cc2)c1	-16	11327	4	2.2	2	11	1
CCC(=O)NN=C(C)CC(=O)Nc1ccc(F)cc1	.	.	12	3.8	.	7	4
O=C(COc1ccccc1Br)N1CCNC1=O	1	6515	5	2.8	.	-8	-13
CCc1nnc(NC(=O)CSc2nnc(-c3ccco3)o2)s1	-34	3583	1	1.5	4	0	0
CCOC(=O)C(NC(=O)Nc1ccc(Cl)cn1)(Oc1ccc(F)cc1)C(F)(F)F (configuration not stated)	-20	2496	8	53	-8	3	7
NC(=S)NN=Cc1coc2ccc(O)cc2c1=O	.	.	11	5.8	.	8	0
CCN(CC)Cc1c(O)ccc2c(=O)c(-c3ccc(Cl)cc3)coc12	-13	.	3	-1.3	-2	-14	-7
CC1(C)CC(=O)C(C=Nc2ccc(N)cc2)=C(O)C1	5	3950	-1	-1.2	4	1	-7
COc1cc(C(=O)Oc2cc(N)n(S(=O)(=O)c3ccc(F)cc3)n2)cc(OC)c1OC	-43	6650	6	0.8	6	7	2
COc1ccc(/C=N/OCC(=O)Nc2cc(C)on2)cc1OC	-26	8595	.	.	-12	.	.
Cc1ccc(C2(c3ccc(C)cc3)CC2C(=O)Nc2ccc([N+](=O)[O-])cc2O)cc1 (configuration not stated)	-22	11309	100*	101*	28	1	-3
O=C(NCC(O)c1ccc([N+](=O)[O-])cc1)C(c1ccccc1)c1ccccc1 (configuration not stated)	8	2851	3	5.0	-12	6	7
CC(=O)c1cccc(NC(=O)CCC2CCCC2)c1	-19	3131	10	9.3	2	-1	2
CCN(CC(=O)NCc1ccc(F)cc1)C(=O)CN1CCN(c2cc(Cl)ccc2C)CC1	-11	3930	13	7.3	-13	-1	8
Cc1oc(-c2cccc(Cl)c2)nc1CN1CCC(C(=O)NCc2cccnc2)CC1	-18	22980*	-3	0.6	3	14	5
CCC(=O)N1c2ccc(C)cc2C2=NNC(=S)NC21O (configuration not stated)	3	3085	.	.	9	.	.
CCCCn1nc2cc(C(=O)NCCCCc3ccccc3)ccc2c1OCC	3	3863	-1	2.1	6	4	5
COc1ccc(/C=N/NC(=O)c2ccccc2O)cc1CSc1ccccn1	-5	2677	.	.	20	.	.
O=C(CCSc1nnc(-c2ccncc2)o1)Nc1cccc(Cl)c1	-16	4290	7	-3.6	0	16	13
FC(F)(F)c1cc(-c2ccc3c(c2)OCO3)nc(NCc2ccco2)n1	-15	3831	8	-0.3	7	15	7
O=C(C[C@H]1C[C@H](C(=O)N2CCCCC2)[C@@]2(CCc3ccccc3)c3[nH]c4ccc(Cl)cc4c3CCN2C1=O)NCCC1=CCCCC1	-38	3456	1	5.2	.	-9	8
C=CCn1c(-c2ccc(OC)cc2)nc2ccccc21	-43	2969	3	1.6	-5	-2	10
O=C(NCc1ccco1)/C(=C/c1ccc(F)cc1)NC(=O)c1ccccc1	-2	3045	13	3.3	-1	4	1
O=c1c(-n2cncn2)c[nH]n1-c1cccc(Cl)n1	-19	4635	-2	-3.0	-12	3	-6
Cc1ccc(C(=O)NCC(=O)OCC(=O)Nc2cccc(S(=O)(=O)N3CCCC3)c2)cc1C	-5	4787	8	2.2	19	-4	0
CCOC(=O)Cn1cc(C(=O)C(=O)N2CCOCC2)c2ccccc21	-19	4287	4	4.2	-18	8	-4
CSc1ccc(/C=C/C(=O)c2c(O)cc(C)oc2=O)cc1	-23	4310	4	11	10	12	3

# Retrieved by structure from the list above (3):
SMILES	PrP 5UTR inh	Bead autofluor	Sa ugtP lethal	RN4220 kill	BJeLR lethal	Mtb hypoxia rep	Mtb hypoxia rep growth
O=C(CCSc1nnc(-c2ccncc2)o1)Nc1cccc(Cl)c1	-16	4290	7	-3.6	0	16	13
CCc1nnc(NC(=O)CSc2nnc(-c3ccco3)o2)s1	-34	3583	1	1.5	4	0	0
O=C(C[C@H]1C[C@H](C(=O)N2CCCCC2)[C@@]2(CCc3ccccc3)c3[nH]c4ccc(Cl)cc4c3CCN2C1=O)NCCC1=CCCCC1	-38	3456	1	5.2	.	-9	8

# Later entries:
SMILES	PrP 5UTR inh	Bead autofluor	Sa ugtP lethal	RN4220 kill	BJeLR lethal	Mtb hypoxia rep	Mtb hypoxia rep growth
CN(C(=O)CSc1nnc2ccccn12)C1CCS(=O)(=O)C1 (configuration not stated)	-24	3045	10	5.4	-2	.	.
O=C(NN=C1CC2C=CCC12)c1cccs1 (configuration not stated)	.	.	2	-1.0	.	6	-1
CC(=O)Oc1oc(-c2ccccc2)nc1C=Nc1ccccc1	-10	2670	-1	1.6	1	.	.
OCC1(Cc2ccccc2)CCN(Cc2cnc(-c3ccc(Cl)cc3)nc2)CC1	-36	4793	-10	6.6	7	1	7
CCNC(=O)C1Cc2cc(S(=O)(=O)N3CCCC3)ccc2N1C(C)=O (configuration not stated)	-21	5298	4	2.7	2	10	3
CNS(=O)(=O)c1ccc(NC(=O)C2c3ccccc3Oc3ccccc32)cc1	6	2298	-4	1.6	-1	-5	-4
O=S(=O)(c1ccc(F)cc1)N1CCC2(CC1)OCCN2S(=O)(=O)c1cccs1	-12	6046	-2	1.5	2	2	5
CCOc1ccccc1NC(=O)CCCn1cc([N+](=O)[O-])cn1	-27	4073	2	0.2	9	17	2
Cc1ccc2onc(CC(=O)O)c2c1	-12	2056	6	1.8	15	8	0
COc1ccc(/C(N)=N/OC(=O)CN(C)S(=O)(=O)c2ccccc2)cc1	-35	3282	4	7.3	.	3	-1
O=C(OCc1ccc(F)cc1)c1cccnc1Cl	-32	5522	3	5.0	-12	-9	11
CC1(C)Cc2c(sc(NC(=O)C(=O)N3CCCCC3)c2C(N)=O)CO1	0	5960	2	1.6	0	-5	0
O=C(O)c1nn(CCOc2cccc(Cl)c2)c(=O)c2ccccc12	-17	4247	10	-4.8	0	0	1
CCOc1ccc(S(=O)(=O)Nc2cccc(C(=O)N3CCN(c4ccc(OC)cc4)CC3)c2)cc1	-14	4879	17	-6.3	3	.	.
CCN(C[C@H]1N[C@@](Cc2ccccc2)(C(=O)OC)[C@H]2C(=O)N(C)C(=O)[C@@H]12)C(=O)NC(C)C	-58	3883	0	3.5	.	7	7
Cc1ccc(C(=O)NCC(=O)OCn2nnc3ccccc3c2=O)cc1	-17	.	3	8.5	.	10	9
O=C(NN=C/C=C/c1ccccc1[N+](=O)[O-])c1cccs1	.	.	-7	4.8	.	-1	-1
O=C(O)CNC(=O)/C(=C\c1ccc2c(c1)OCO2)NC(=O)c1ccc(Br)cc1	-11	4628	-2	5.9	2	2	3
N#Cc1ccccc1S(=O)(=O)N1CCN(c2ccc(S(=O)(=O)N3CCOCC3)cn2)CC1	10	3386	-4	0.5	4	-3	-5
CCc1c(C)[nH]c2c(C)cccc2c1=O	-26	3080	-6	-6.5	-1	11	8
CCCc1cc(N2CCN(C(=O)c3ccco3)CC2)n2c(nc3ccccc32)c1C#N	-2	3677	2	-9.1	12	-2	10
O=C(O)CCn1c2ccccc2c2nc3ccccc3nc21	-27	.	11	-1.3	2	12	1
Cc1ccccc1N/N=C/c1sc(=O)n(Cc2cccc(C(=O)O)c2)c1Cl	-11	4000	.	.	-1	.	.
O=C(NC1CCCCC1)C(c1cccs1)N(C(=O)c1ccco1)c1ccc2c(c1)OCCO2 (configuration not stated)	-11	3567	7	5.2	-1	-4	11
COc1ccc(S(=O)(=O)NCC(=O)N(CC(=O)NCC2CCCO2)c2ccccc2C)cc1 (configuration not stated)	-4	2106	7	0.0	4	.	.
CC(=O)Nc1ccc(OCC(O)Cn2c3ccccc3c3ccccc32)cc1 (configuration not stated)	9	2643	-24	0.8	-3	0	8
O=C(Cc1ccc(NC(=O)C2CCCN(C(=O)CCc3ccccc3)C2)cc1)Nc1cccc(C(=O)N2CCCCC2)c1 (configuration not stated)	31	3884	1	4.4	.	-14	9
O=C(/C=C/c1ccc(Cl)cc1Cl)NCCSCc1ccccc1	-17	2088	-8	-3.6	-7	-4	-3
O=C1C(C2=NC(C(=O)O)C3C(=O)N(c4ccccc4)C(=O)C23)=C(O)c2ccccc21 (configuration not stated)	-25	9350	6	1.0	-12	3	3
Cc1cccc2nc(C(=O)Nc3cccc(C(=O)NC4CC4)c3)cn12	-19	3964	1	3.4	.	2	5
CN1c2ccccc2-c2nc3ccccc3n2C1c1ccco1 (configuration not stated)	-21	2906	-9	-5.1	-2	.	.
Cc1ccc(NC(=O)CN2C(=O)c3ccccc3C2=O)nc1	-29	4534	7	2.6	18	10	0
Cn1c(SCC(=O)NCC2COc3ccccc3O2)nnc1C(F)(F)F (configuration not stated)	-13	2880	-5	-2.8	.	1	2
CN(C)CCNc1ncnc2sc(-c3ccccc3)cc12	-37	3872	19	-2.3	1	14	6
Cc1ccc(-c2[nH]c(-c3ccccc3)nc2SCC(=O)NCC2CCCO2)cc1 (configuration not stated)	-29	6333	4	0.3	-6	5	2
O=C(/C=C/c1cccc(Cl)c1)NCc1cccs1	-39	21424*	4	0.5	-9	25	28
O=C(NNC(=O)c1cccs1)c1ccc([N+](=O)[O-])cc1	.	.	1	5.0	-7	-9	-1
Cc1ccc(Nc2cc(-n3nc(C)cc3C)ncn2)cc1	-17	6689	2	1.5	2	8	6
C(=N\C(/N=C/c1ccco1)c1ccco1)/c1ccco1	-2	4472	.	.	6	.	.
CCc1nnc(NC(=O)C2CC(=O)N(CCc3ccccc3)C2)s1 (configuration not stated)	2	3513	3	-0.8	1	-2	-1

# A second format for some results above.
> C(=N\C(/N=C/c1ccco1)c1ccco1)/c1ccco1
  PrP 5UTR inh = -2	Bead autofluor = 4472	Sa ugtP lethal = .	RN4220 kill = .	BJeLR lethal = 6	Mtb hypoxia rep = .	Mtb hypoxia rep growth = .
> CCc1nnc(NC(=O)C2CC(=O)N(CCc3ccccc3)C2)s1 (configuration not stated)
  PrP 5UTR inh = 2	Bead autofluor = 3513	Sa ugtP lethal = 3	RN4220 kill = -0.8	BJeLR lethal = 1	Mtb hypoxia rep = -2	Mtb hypoxia rep growth = -1

# Following part:
SMILES	PrP 5UTR inh	Bead autofluor	Sa ugtP lethal	RN4220 kill	BJeLR lethal	Mtb hypoxia rep	Mtb hypoxia rep growth
CC(=NO)C(=O)Nc1ccccc1	.	.	3	2.9	.	15	12
CC1CCN(S(=O)(=O)c2ccc(S(=O)(=O)NCC(=O)C(C)(C)C)cc2)CC1	-15	10916	5	5.8	-11	8	-2
O=c1[nH]c2cc3c(cc2cc1CN(CCO)S(=O)(=O)c1ccccc1Cl)OCCO3	-4	7797	-4	9.7	4	-2	-2
O=C(O)c1cccnc1C(=O)O	-41	5690	8	4.5	.	.	.
Cc1cc(NC(=O)CN2C(=O)CC(c3ccco3)Sc3ccccc32)no1 (configuration not stated)	-9	6169	7	-0.1	-1	4	7
CCCn1c(=O)[nH]c(=O)c2c1nc(-c1cccs1)n2CCOC	-1	3145	0	1.4	2	5	5
COc1cc(C(=O)Nc2ccccc2NC(=O)c2cc(OC)c(OC)c(OC)c2)cc(OC)c1OC	-19	3153	1	2.4	7	12	-5
Cc1ccc(C(=O)Nc2ccc(NC(=O)c3cccs3)cc2)c(C)c1	-11	3930	-7	6.9	-5	12	5
CCC(CC)=C(C#N)C(=O)NC1CCCCC1	-10	2113	-2	4.4	-12	7	-5
COc1cc(C=C(c2nc3ccccc3s2)c2nc3ccccc3s2)cc(OC)c1O	-25	3718	3	25	-4	5	12
CCc1ccc(N2C(=O)c3sc4nnc(-c5ccccc5)c(=O)n4c3C2=O)cc1	-23	5109	-5	4.6	7	.	.
Cc1cc(C#Cc2c(-c3ccccc3)n(C)c3ccccc23)ccc1F	-9	3798	.	.	-12	.	.
Cc1nc2c3ccccc3n(Cc3ccccc3F)c2s1	-14	2625	20	-0.8	-9	17	-2
Cc1ccc(S(=O)(=O)N2CCOCC2)cc1C(=O)NC(=S)N1CC(C)OC(C)C1 (configuration not stated)	-3	4557	1	3.3	-6	10	6
